Source: PubChem
Ab BasE inh – BasE siderophore enzyme inhibitors, primary screen, biochemical, Acinetobacter baumannii ATCC 17978, fluorescence polarization; inhibition, % (test concentration not listed); 0.1% of 84,000 active; purified BasE, fluorescence polarization binding displacement;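 active means both replicates above 25% with normal brightness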;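 further: 0% = negative plate control signal and 100% = positive plate control signal; stock transfer was 100 nL into about 30 µL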
LANA-nucl inh – inhibitors of KSHV LANA-nucleosome binding, primary screen, biochemical, fluorescence polarization, FITC-LANA1-23, chicken nucleosomes; AID 720717, 2013; 0.3% of 51,000 active; FITC-LANA1-23 / chicken nucleosome fluorescence polarization; hits give low values; z-score (concentration not given with the values);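 active means both repeat wells score below -2 in polarization z-score versus plate sample wells, excluding overly bright wells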;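 further: 100 nL library stock added to about 30 µL; numbers are from one replicate; some results filed as inactive read as strong as hits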
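Test system: purified chicken nucleosomes with FITC-labelled LANA N-terminal peptide (1-23); Input: 240 nM purified chicken nucleosomes (480 nM peptide binding sites), final; Medium: TEN-BT buffer, pH 7.5; Timing: 10–45 min, room temperature; Technique: fluorescence polarization, 480 nm excitation, 535 nm parallel and perpendicular emission; Replication: duplicates.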
Active calls of the source: *; . = no result given; & = joins results of further samples. Only part of the results is shown; rates above refer to the full screens.

Values run as follows: Ab BasE inh	LANA-nucl inh
O=C(N/N=C/C=C/c1ccco1)c1cccs1
 : -1.0	2.5
CCOC(=O)c1cc(-c2ccnn2S(=O)(=O)c2ccc(C)cc2)on1
 : 5.5	.
Cc1cc(O)c2/c(=N\N)c(-c3csc(C)n3)coc2c1
 : -1.4	.
O=C(/C=C/c1ccco1)N1CCN(Cc2nc3sc4c(c3c(=O)[nH]2)CCCC4)CC1
 : -0.6	.
O=C(Nc1ccc(-c2nnc3n2CCCCC3)cc1)c1ccccc1
 : -2.1	.
CC1CCN(CC(=O)Nc2ccccc2C(F)(F)F)CC1
 : 1.7	-0.68
CCN1C(=O)/C(=C/c2c(NC(C)C)nc3ccccn3c2=O)SC1=S
 : -13	3.1
Oc1cc(O)c2c(c1)OC(c1ccc(O)c(O)c1)C(O)C2 (configuration not stated)
 : 8.2	-0.69
COc1ccc(SCc2csc(NC(C)=O)n2)cc1
 : -1.8	.
O=S(=O)(c1ccc(-c2cc(C(F)(F)F)on2)s1)N1CCc2c([nH]c3ccc(F)cc23)C1
 : -1.5	.
NC(=O)N(CCC(=O)O)c1ccccc1
 : -3.0	1.2
CCOC(=O)c1ccc(S(=O)(=O)Nn2cc(-c3ccccc3)[nH]c2=S)cc1
 : -0.4	.
CNC(=O)c1ccccc1Nc1ccc(SC(F)F)cc1
 : 2.2	-0.064
N#CC1=C2SCN(c3ccccc3)CN2C(=O)CC1c1ccccc1 (configuration not stated)
 : 1.9	-0.029
CCc1cccc(CC)c1NC(=O)Cn1c(C(=O)OC(C)C)cc2c1ccn2C
 : -0.5	0.84
Cc1ccc2nc(CC(=O)O)[nH]c2c1
 : 1.8	0.1
CCCCOc1ccc(NC(=O)CS(=O)CC(=O)Nc2ccc(OC)cc2)cc1 (configuration not stated)
 : 1.3	-0.0095
COCCOc1ccc(C(F)(F)F)cc1Nc1nc2ccccc2o1
 : 1.9	.
O=C(OCc1cc(=O)oc2cc3c(cc12)CCC3)c1ccc(Br)o1
 : 1.3	.
CCN(CC)C(=O)c1nc(-c2ccc(Cl)cc2)n2c1CCCCC2
 : 1.1	0.26
CCOC(=O)N1CCN(C(=O)COc2cccc3c2CCN(CC)C3=O)CC1
 : 0.5	-2.5
CN(c1ccccc1)N1C(=O)c2cccc3cccc(c23)C1=O
 : 0.2	-0.83
CNC(=O)CN(c1cccc(F)c1)S(C)(=O)=O
 : -1.1	-1.4
CCCS(=O)(=O)c1c(S(=O)(=O)CCC)c2cc(CC)ccn2c1C(=O)OC
 : 1.0	-0.49
COc1ccc(CCn2c(C)cc(C(=O)COC(=O)c3ccco3)c2C)cc1
 : -0.1	.
Cc1cccc(C)c1-n1nnnc1SCC(=O)Nc1ccc2c(c1)OCO2
 : 1.5	0.43
COc1ccc2nc(/N=C(\N)NC(=O)N3c4ccccc4Sc4ccccc43)nc(C)c2c1
 : 2.8	.
CC(C)NC(=O)c1ccc(N(C)S(C)(=O)=O)cc1
 : 1.9	.
O=C(c1ccc(Cl)c(S(=O)(=O)N2CCCC2)c1)N1CCc2ccccc21
 : 0.6	.
CNC(=S)Nc1ccccc1
 : 4.3	-0.019
O=C(N/N=C/c1ccco1)C1CC12CCC2 (configuration not stated)
 : 0.5	0.39
CCOc1ccc2c(c1)sc1nc(=O)n(-c3ccccc3)c(=O)n12
 : 1.8	0.2
NC(=O)COc1ccc2c(c1)OCO2
 : 2.0	.
O=C(NCc1ccccc1)c1cc(I)ccc1O
 : -5.1	.
O=C(Cc1cn2ccsc2n1)OCc1ccc(Cl)c(Cl)c1
 : 0.4	.
CCOc1ccc(C(=S)N2CCCC2)cc1
 : -1.2	-1.2
O=C(NCCC1=CCCCC1)c1sc2ccccc2c1Cl
 : -0.5	.
COc1ccc(CN(C(=O)Nc2ccc(OC)cc2)C2CCN(C(C)=O)CC2)cc1
 : -0.8	0.32
Cc1ccc(N(C)S(=O)(=O)c2ccc3c(c2)CCCC(=O)N3)cc1
 : 1.8	.
NC(=O)CS(=O)(=O)c1ccc(Cl)cc1
 : 0.6	0.53
CC1CC(C(F)(F)F)n2ncc(C(=O)O)c2N1 (configuration not stated)
 : -0.6	-1.2
CC1=C(C)C(=O)C(NCc2ccco2)=CC1=O
 : 1.6	.
Clc1ccc(-c2nnc(C3CCC(c4ccccc4)CC3)o2)cc1 (configuration not stated)
 : 2.7	.
CSc1ccc(S(=O)(=O)NCCN2CCOCC2)cc1
 : 2.2	1.1
CCCCCCCCCCC[C@@H](C[C@H]1OC(=O)[C@H]1CCCCCC)OC(=O)[C@@H](CC(C)C)NC=O
 : 1.7	0.17&-0.18
CCn1c(C(=O)NCc2ccc(Cl)cc2)cc2sccc21
 : 2.7	-0.13
Cc1nnc(SCC(=O)NC2CCCCCC2)[nH]c1=O
 : -1.7	.
CN1CCN(CCNC(=O)C2c3ccccc3C(=O)N(C3CCCC3)C2c2cccs2)CC1 (configuration not stated)
 : 2.3	-0.79
Cc1ccc2c(c1)C(C(=O)O)=Cc1ccccc1O2
 : -4.5	1.5
CC1(C)CC(=O)C2=C(C1)OC(=O)CC2c1ccccc1 (configuration not stated)
 : .	1.8
CCSc1cc(C)nc2ncnn12
 : -1.2	0.071
CCCn1c2ccccc2c2cnn(CC(=O)NCCOC)c(=O)c21
 : -3.4	2.9
Cc1cc2c(SCC(=O)NC3CCCC3)ncnc2s1
 : 1.2	0.11
Cc1nc(-c2n[nH]c(=S)o2)cs1
 : 0.2	-0.42
CC(C)Cc1cc(C(=O)Nc2cccc(Cl)c2)no1
 : -0.1	-0.24
COc1nc(-c2ccccc2)cc(-c2ccc(C)cc2)n1
 : 1.0	-0.85
Cc1cc(C(=O)Nc2cccc(C(F)(F)F)c2)on1
 : 0.3	-1.3
COC(=O)c1ccccc1S(=O)(=O)N1CCC(C(=O)OCC(=O)Nc2ccccc2F)CC1
 : 0.9	.
Cc1sc(NC(=O)C2COc3ccccc3O2)c(C(N)=O)c1C (configuration not stated)
 : 0.3	1.2
Cn1c(CSc2ccnc3cc(Cl)ccc23)nnc1SCC(=O)c1ccc(Cl)s1
 : 1.5	.

Continuation.
Values run as follows: Ab BasE inh	LANA-nucl inh
CCOc1ccccc1OCC(=O)OCC1CC1
 : 1.7	.
Cc1cc(C)nc(NC2=NCCN2C(=S)Nc2c(C)cccc2C)n1
 : -3.3	2.2
CC1CCCCN1C(=O)Cn1c(=O)oc2ccccc21 (configuration not stated)
 : 2.0	0.49
CCCN(CCC)C(=O)Nc1cccc(F)c1
 : -1.2	-0.85
CN1/C(=C/P(=O)(N(C)C)N(C)C)C(C)(C)c2ccccc21
 : -0.9	.
O=c1cc(CSc2ccc(Cl)cc2)[nH]c(=S)[nH]1
 : 1.1	0.096
COc1cc(CN2CCN3CCCC3C2C2CCCCC2)cc(OC)c1 (configuration not stated)
 : -9.1	1.5
COC(=O)c1ccccc1NC(=O)CSc1ncn[nH]1
 : 1.7	.
Cc1n[nH]c(C)c1N
 : 0.5	-0.06
O=C(COc1ncnc2c1cnn2-c1ccccc1)N1CCc2ccccc21
 : 0.5	.
CCOC(=O)c1[nH]c(C)c(S(=O)(=O)NC2CCCCNC2=O)c1C (configuration not stated)
 : -2.0	1
CC12CCC(=O)N1C(C(=O)OCC(=O)N1CCc3ccccc31)CS2 (configuration not stated)
 : 3.1	.
CC1CCN(CN2C(=O)CCC2=O)CC1
 : 3.2	-0.43
CCN=C1SC(CC(=O)Nc2cccc(C(=O)O)c2)C(=O)N1CC (configuration not stated)
 : 1.1	.
Cc1ccc2nncc(N3CCN(c4ccccc4F)CC3)c2c1
 : -0.6	0.9
CCOc1ccc2nc(NC(=O)CSc3nnc(Cc4csc(C)n4)o3)sc2c1
 : -8.7	.
COCCNC(=O)c1cc(-c2cccc(OC)c2)no1
 : -0.6	0.13
N#Cc1ccc(OCc2nnc(SCC(=O)c3ccccc3)n2-c2ccccc2)cc1
 : 2.1	-0.35
COc1ccc(CC(=O)Nc2c(C)nc3cc(C)ccn3c2=O)cc1
 : -1.4	1.3
O=C(O)Cn1nnc(-c2ccncc2)n1
 : -0.8	-0.66
O=C(N1CCCc2ccccc21)N1c2ccccc2Sc2ccccc21
 : 1.5	.
Cn1nc(C(=O)OCC(=O)NC2CC2)c2ccccc2c1=O
 : -0.7	.
CCn1c(SCC(N)=O)nc2ccccc2c1=O
 : 0.1	-0.37
CCOC(=O)c1oc2ccccc2c1NC(=O)CC
 : 1.7	0.83
Cc1cc(C(=O)Nc2cccc(COC(=O)c3cc(C)on3)c2)no1
 : -0.1	-1.1
CCNS(=O)(=O)c1ccc(NC(=O)c2c(-c3ccccc3)noc2C)cc1
 : -0.5	-0.61
CCOC(=O)c1ccc(NS(=O)(=O)N2CCOCC2)cc1
 : 4.9	-0.2
Cc1ccc(NC(=O)CC2C(=O)Nc3ccccc3N2C(C)C(=O)N2CCCCC2)c(C)c1 (configuration not stated)
 : -1.5	.
CCOc1ccccc1C(=O)Nc1cccc(-c2ccc(N3CCOCC3)nn2)c1
 : -3.0	0.28
O=C(Cn1cnc2scc(-c3ccc(Br)cc3)c2c1=O)N1CCNC1=O
 : 0.9	.

Compound profiles, from the list above:
COCCNC(=O)c1cc(-c2cccc(OC)c2)no1 is listed as Ab BasE inh: -0.6; LANA-nucl inh: 0.13
N#Cc1ccc(OCc2nnc(SCC(=O)c3ccccc3)n2-c2ccccc2)cc1 is listed as Ab BasE inh: 2.1; LANA-nucl inh: -0.35

Other compounds follow:
Values run as follows: Ab BasE inh	LANA-nucl inh
O=C(Nc1nnc(C(F)(F)F)s1)C1CC(=O)N(c2ccc(Cl)cc2)C1 (configuration not stated)
 : -5.2	2.7
O=C(CN1CCN(Cc2ccc3c(c2)OCO3)CC1)N(c1ccccc1)C1CCS(=O)(=O)C1 (configuration not stated)
 : -2.0	.
O=c1[nH]c2ccccc2n1CCCSc1ncnc2ccccc12
 : 3.5	.
CC1(C)N(O)C2=C(N=O)CCC(N=O)=C2N1O
 : -0.2	-1
CC(C(N)=O)N1c2cccc3cccc(c23)S1(=O)=O (configuration not stated)
 : 0.4	-1
Cc1cccc(OCc2nnc(SCC(=O)N3c4ccccc4CCc4ccccc43)o2)c1
 : -0.7	1.7
CCCN1CCc2c(sc(NC(=S)NC(=O)c3ccccc3)c2C#N)C1
 : -14	.
CC1(C)C2CC=C(CN3CCN(c4ccccc4)CC3)C1C2 (configuration not stated)
 : -0.9	-0.068
CCCc1n[nH]c(=S)s1
 : 0.6	.
Cc1nn(-c2ccccc2)c2sc(C(=O)NN3CC(O)=C(c4ccccc4)C3=N)cc12
 : 2.3	.
Cc1ccc(-c2noc(CNC(=O)NC3CCCCC3)n2)cc1
 : -4.4	2.9
Cc1ccc(S(=O)(=O)N(CCC(=O)O)c2ccccc2)cc1
 : 2.1	.
Cc1cc(C(=O)Nc2cccnc2)nn1C(C)(C)C
 : -0.9	-1.6
CN(C)C(CNC(=O)Nc1ccccc1)c1cccs1 (configuration not stated)
 : -0.6	.
CCN(CC)CCOc1ccccc1N
 : -1.1	0.044

Copied from the list.
CC1(C)C2CC=C(CN3CCN(c4ccccc4)CC3)C1C2 (configuration not stated) @ Ab BasE inh: -0.9
Cc1ccc(-c2noc(CNC(=O)NC3CCCCC3)n2)cc1 @ LANA-nucl inh: 2.9
Cc1cc(C(=O)Nc2cccnc2)nn1C(C)(C)C @ Ab BasE inh: -0.9
CCCc1n[nH]c(=S)s1 @ Ab BasE inh: 0.6
Cc1cccc(OCc2nnc(SCC(=O)N3c4ccccc4CCc4ccccc43)o2)c1 @ Ab BasE inh: -0.7
CC(C(N)=O)N1c2cccc3cccc(c23)S1(=O)=O (configuration not stated) @ LANA-nucl inh: -1
CN(C)C(CNC(=O)Nc1ccccc1)c1cccs1 (configuration not stated) @ Ab BasE inh: -0.6

(list continues)
Values run as follows: Ab BasE inh	LANA-nucl inh
CCCCN(C(=O)c1cnc2n(c1=O)CCS2)c1ccccc1
 : 2.8	-0.97
COc1cccc(N=C=S)c1
 : 1.8	.
COCCNC(=O)Cc1ccccc1OC
 : 1.2	-0.085
CCOC(=O)c1cc(-c2nnc(-c3cccc(C)c3)o2)c(C)nc1C
 : -0.2	.
CCCCn1c2ccccc2c2nnc(SC(C)C(=O)OC)nc21 (configuration not stated)
 : 0.3	-0.69
N#C/C(=C/c1ccc(-c2cccc(C(F)(F)F)c2)o1)c1ccc(C#N)cc1
 : -0.6	1.8
O=C(O)CCc1nc2c3c4c(sc3ncn2n1)CCCC4
 : 5.3	-0.51
CC(CC(=O)N1CCOCC1)c1ccccc1 (configuration not stated)
 : -3.1	1.7
Cc1ccccc1-c1nc2cc(NC(=O)c3cccc(F)c3)ccc2o1
 : 0.8	.
Clc1ccc(/C=N/N2CCCCC2)cc1
 : -0.1	.
CCOC(=O)c1[nH]c2ccc(Br)cc2c1C
 : 0.3	-0.025
CC12Nc3ccccc3C1(C)CCO2 (configuration not stated)
 : 0.6	0.32
NC(=O)c1cc2cc(Br)ccc2o1
 : 3.5	.
O=C(CC1SC(=NC2CC2)NC1=O)NCc1ccccc1 (configuration not stated)
 : 1.0	.
O=C(Nc1nnc(-c2ccc3c(c2)OCCO3)o1)c1ccc(NS(=O)(=O)c2ccccc2)cc1
 : 1.3	0.3
Cc1cc2ncn(CCC(=O)Nc3ccccc3F)c2cc1C
 : -0.5	-2.2
O=C(/C=C/c1ccc(Cl)cc1)N1CCN(c2ccccc2)CC1
 : -0.4	1.1
O=C(CCN1C(=O)C2C3C=CC(C3)C2C1=O)NC1CCCCC1 (configuration not stated)
 : -1.1	-0.54
O=C(COC(=O)c1ccccc1Sc1ncnc2sc3c(c12)CCC3)NCc1ccco1
 : -1.7	.
CCn1c(C(=O)O)c(CNC2CCCC2)c2ccc(C)cc21
 : -8.3	0.93
